StopGo RLuc: Primary qHTS Assay for Foot and Mouth Disease Virus Antivirals against NCGC Sytravon and CBC Compound Libraries: Renilla Luciferase Signal. HEK cells with a luciferase reporter of 2A StopGo recoding. Potency, µM (highest dose often 57.5 µM), for inactives: at the top dose signal change, negative = less light. actives 0.32% (n = 120,000). AID 1745857, 2022; active means well fitted falling curve with a large enough effect; inconclusive means small, poorly fitted or top-dose-only effect; inactive means no such curve, though single readings can be large or run the other way; further: nearly all actives have a fitted effect of over 55% in size; overnight with compound
2A firefly: Primary qHTS Assay for Foot and Mouth Disease Virus Antivirals against NCGC Sytravon and CBC Compound Libraries: Firefly Luciferase Signal | HEK cells with a luciferase reporter of 2A StopGo recoding | Potency, µM (series often up to 57.5 µM), inactives show top-dose signal change, negative = less light | actives 0.23% (n = 120,000); active = well fitted falling curve with a large enough effect; inconclusive = small, poorly fitted or top-dose-only effect; inactive = no such curve, though single readings can be large or run the other way; further: nearly all actives have a fitted effect of over 60% in size; overnight with compound
An asterisk follows results filed as active; u = inconclusive; [ ] = another dose, or the depositor's remark. On the % scale 0 is the no-effect control and ±100 the full control effect; potency means the concentration at half of the fitted maximal effect. Only part of the results is shown; rates above refer to the full screens.

1. Cc1cccc(Oc2nc3c(C)cccn3c(=O)c2/C=C(\C#N)c2nc3ccccc3s2)c1
2. O=C(CSc1nc2c([nH]c3ccccc32)c(=O)n1-c1ccc(Cl)cc1)N1CCc2ccccc21
3. COc1cccc(NC(=O)Cn2c(=O)n(CCc3ccccc3)c(=O)c3c4c(sc32)CN(C(C)=O)CC4)c1
4. O=C(Cc1c[nH]c2ccccc12)OCc1c(Cl)cccc1Cl
5. CCCCCNC(=O)CCn1c(=O)[nH]c2ccccc2c1=O

Assay by compound	1	2	3	4	5
StopGo RLuc	-4.8%	-22.0%	-11.0%	29.6%	66.6%[activator]
2A firefly	-7.2%	16.5%	-11.6%	133.7%[activator]	31.7%[activator]

6. O=C(Nc1ccc(F)cc1)c1cccn1-c1nnc(N2CCCCC2)s1
7. COc1ccc(CNC(=O)C(C)c2ccc3cc(OC)ccc3c2)cc1 (stereo not given)
8. CC(C)C(=O)Nc1ccc(Sc2ccc(Br)cc2)cc1
9. COc1ccc(N2CCN(C(CNC(=O)c3cccc(OC)c3)c3cccnc3)CC2)cc1 (stereo not given)
10. CCc1ccc(NC(=O)Cn2c(=O)n(Cc3ccc(C)cc3)c(=O)c3cccnc32)cc1

Assay by compound	6	7	8	9	10
StopGo RLuc	-4.9%	13.1%	13.7%	-12.5%	-7.2%
2A firefly	55.2%[activator]	0.0%	34.7%	-13.9%	1.6%

11. O=C(CSc1cn(CC(=O)N2CCCC2)c2ccccc12)Nc1ccc(C(F)(F)F)cc1
12. CCc1cc(CC)n(-c2nc3c(c(=O)[nH]c(=O)n3C)n2CCOC)n1
13. COc1ccc(Cl)cc1NC(=O)CN(c1cc(C)cc(C)c1)S(=O)(=O)c1c(C)n[nH]c1C
14. CCCCNc1nc2c(-c3cccc(C)c3)nnn2c2ccccc12
15. CCCOC(=O)C(C)Oc1ccc2c(=O)c(Oc3ccc(CC)cc3)coc2c1 (stereo not given)

Assay by compound	11	12	13	14	15
StopGo RLuc	u	-5.6%	14.2%	-8.8%	7.2%
2A firefly	u	-5.5%	0.0%	-16.2%	12.2%

16. Cc1nn(C(C)(C)C)c(OC(=O)c2cccc(F)c2)c1Sc1ccccc1
17. CC(C)(C)OC(=O)N1CCC(c2c(C(=O)N3CCN(c4ncccn4)CC3)cnn2-c2ccccc2)CC1
18. CCCc1nnc2sc(-c3ccc4c(c3)OCO4)nn12
19. COc1ccc(/C=C\c2onc(C)c2S(=O)(=O)N2CCC(C(=O)Nc3cccc(OC)c3)CC2)cc1
20. O=c1cc(-c2ccccc2)oc2cc(OCc3ccccc3)cc(O)c12

Assay by compound	16	17	18	19	20
StopGo RLuc	-10.8%	-10.8%	20.8%	u	4.5%
2A firefly	-19.7%	-12.0%	0.0%	u	8.1%

21. COc1ccc(CNC(=O)CCCn2nc(C)c3c(C)n(-c4ccccc4)nc3c2=O)cc1
22. Fc1ccc(CNCc2cccs2)cc1
23. CC(O)(P(=O)(O)O)P(=O)(O)O
24. O=c1c(-c2ccc(O)cc2)coc2cc(O)cc(O)c12
25. Cc1cc(-c2ccc(C)c(S(=O)(=O)NCc3cccs3)c2)on1

Assay by compound	21	22	23	24	25
StopGo RLuc	-5.5%	-4.0%	1.8%	22.3%	-0.6%
2A firefly	-13.4%	-0.9%	-4.3%[11.5 µM]	28.0%[11.5 µM]	19.3%

The closing 3 entries of the section above open the next one:
23. CC(O)(P(=O)(O)O)P(=O)(O)O
24. O=c1c(-c2ccc(O)cc2)coc2cc(O)cc(O)c12
25. Cc1cc(-c2ccc(C)c(S(=O)(=O)NCc3cccs3)c2)on1
26. COc1ccc(NC(=O)CCn2nc(-c3ccc(Cl)cc3)c3ccccc3c2=O)cc1C(N)=O
27. CCCN1CCC(NC(=O)Cc2c[nH]c3ccccc23)CC1
28. Cc1ccc(N2CCN(C(=O)c3cn(C)c4ccc(S(=O)(=O)N5CCCC5)cc4c3=O)CC2C)cc1 (stereo not given)
29. O=C(Nc1ccc[nH]c1=O)c1cc[n+]([O-])cc1
30. COc1ccccc1NC(=O)C1=C(C)Nc2nc(SC)nn2C1c1ccccc1Cl (stereo not given)

Assay by compound	23	24	25	26	27	28	29	30
StopGo RLuc	1.8%	22.3%	-0.6%	4.6%	-10.8%	17.7%	-1.3%	13.4%
2A firefly	-4.3%[11.5 µM]	28.0%[11.5 µM]	19.3%	4.6%	-9.8%	-16.9%	-5.9%	-17.3%

31. CN(C)CCN(Cc1cccc(F)c1)C(=O)c1ccc(S(C)(=O)=O)cc1
32. NC(=O)c1ccc(NC(=O)CCc2ncc(-c3ccc(F)cc3)o2)cc1
33. CC(=O)c1cccc(NC(=O)CCn2nc(C)c(S(=O)(=O)N3CCCCC3)c2C)c1
34. O=C(/C=C/c1ccco1)OCC(=O)c1ccccc1
35. CCNC(=O)NC(=O)CN(Cc1ccccc1)CC(C)C(=O)OC (stereo not given)

Assay by compound	31	32	33	34	35
StopGo RLuc	-10.8%	-9.7%	147.9%[activator]	14.2%	2.8%
2A firefly	-2.2%	32.1%[activator]	-11.4%	145.9%[activator]	4.6%

36. CCN(CC)C(=O)c1sc2c(c1C)c(=O)n(-c1ccc(OC)cc1OC)c(=O)n2CC(=O)Nc1ccccc1
37. O=C(CCCCCn1c(=O)c2sccc2n(Cc2ccccc2Cl)c1=O)NCc1ccc2c(c1)OCO2
38. COc1ccc(-c2c(C)c3cc(OS(=O)(=O)c4ccc(Cl)cc4)ccc3oc2=O)cc1
39. CCCn1nc(C(=O)N2CCc3ccccc32)c2ccccc2c1=O
40. O=S(=O)(c1cccs1)N(Cc1ccco1)Cc1cccs1

Assay by compound	36	37	38	39	40
StopGo RLuc	-2.4%	43.5%[activator]	-27.9%	13.1%	89.7%[activator]
2A firefly	3.6%	0.7%	-14.1%	15.8%	-0.7%

41. CCCSc1nc(=O)c2c(n1C)NC(=O)CC2c1cc(C)ccc1C (stereo not given)
42. O=C(NCCc1nc2ccccc2n1Cc1ccc(F)cc1)c1ccco1
43. CC(NC(=O)c1cccc(Nc2nc3ccccc3n3nnnc23)c1)c1ccccc1 (stereo not given)
44. CCc1ccc(NC(=O)C2=CC(c3ccc4c(c3)OCO4)=NS(=O)(=O)N2C)cc1
45. O=C1CN(C(=O)c2c(F)cccc2Cl)C(c2ccc(F)cc2)c2cc(Br)ccc2N1 (stereo not given)

Assay by compound	41	42	43	44	45
StopGo RLuc	21.6%	-10.2%	26.2%	17.4%	59.4%[activator]
2A firefly	6.1%	-17.6%	34.3%[activator]	15.5%	2.3%

46. CN(C)Cc1nc(SCC(=O)Nc2cccc(F)c2)c2ccccc2n1
47. Cc1cc(NC(=O)c2coc(Br)c2)no1
48. CCCN(Cc1cc2ccc(C)cc2[nH]c1=O)S(=O)(=O)c1ccccc1
49. O=C(OCC(=O)N1CCOCC1)c1cc(-c2ccc(Cl)s2)nc2ccccc12
50. COc1ccc(C)cc1NC(=O)CCS(=O)(=O)c1cc2c3c(c1)CCN3C(=O)CC2

Assay by compound	46	47	48	49	50
StopGo RLuc	-10.1%	60.2%[activator]	59.3%[activator]	2.5%	-1.4%
2A firefly	14.8%	96.3%[activator]	26.7%	0.0%	-11.7%

Record cards (already shown). Order of screens: StopGo RLuc | 2A firefly
Entry for CN(C)CCN(Cc1cccc(F)c1)C(=O)c1ccc(S(C)(=O)=O)cc1 → -10.8% | -2.2%
Entry for CCc1cc(CC)n(-c2nc3c(c(=O)[nH]c(=O)n3C)n2CCOC)n1 → -5.6% | -5.5%
Entry for O=C(CSc1nc2c([nH]c3ccccc32)c(=O)n1-c1ccc(Cl)cc1)N1CCc2ccccc21 → -22.0% | 16.5%
Entry for CCCn1nc(C(=O)N2CCc3ccccc32)c2ccccc2c1=O → 13.1% | 15.8%
Entry for CCCc1nnc2sc(-c3ccc4c(c3)OCO4)nn12 → 20.8% | 0.0%

Carrying on.
51. Cn1c(=O)n(Cc2ccccc2)c(=O)c2c1nc(NCc1ccccc1)n2Cc1ccccc1
52. CCCC(=O)Nc1ccc(-c2nc3cc(OC)ccc3o2)cc1
53. COc1ccc(Cn2cc(CN3[C@@H](CC(C)C)COc4ccc(Cl)cc4S3(=O)=O)nn2)cc1
54. CCC(C)N1C(=O)S/C(=C\c2cn(C)c3ccccc23)C1=O (stereo not given)
55. CS(=O)(=O)Nc1ccc(-c2csc(N3CCCCC3)n2)cc1

Assay by compound	51	52	53	54	55
StopGo RLuc	-13.7%	-2.9%	3.5%	-7.7%	-7.0%
2A firefly	-17.3%	111.1%[activator]	1.2%	38.8%[activator]	107.7%[activator]

56. Cc1oc(-c2ccccc2)nc1CSCC(=O)Nc1ccccc1C(F)(F)F
57. CCOc1ccc2c(c1)cc(C(=O)NCc1cccc(OC)c1)n2C
58. COc1ccc(NC(=O)Cc2c(C)[nH]n(-c3nc(-c4ccc(Cl)cc4)cs3)c2=O)cc1
59. O=c1cc(CSc2ccccc2NS(=O)(=O)c2ccc(F)cc2)nc2ccc(Cl)cn12
60. Cc1nn(CC(=O)Nc2nc3ccccc3s2)c(=O)c2ccccc12

Assay by compound	56	57	58	59	60
StopGo RLuc	u	-4.3%	-0.1%	0.0%	-11.8%
2A firefly	u	-2.9%	66.4%[activator]	127.0%[activator]	29.5%

61. CCCNC(=O)CSc1ccc2ccccc2n1
62. Cc1cccc(-n2ncc(C(=O)N3CCN(c4ccc(Cl)cc4)CC3)c2C2CCN(C(=O)OC(C)(C)C)CC2)c1
63. Cc1ccc(CNC(=O)CCCCCn2c(=O)c3sccc3n(CC(=O)Nc3ccc(C)c(F)c3)c2=O)cc1
64. COC(=O)CCNC(=O)c1ccc(COC(C)=O)cc1
65. Cc1ccccc1CC(=O)NC12CC3CC(CC(C3)C1)C2

Assay by compound	61	62	63	64	65
StopGo RLuc	-1.0%	-1.1%	4.4%	10.0%	9.3%
2A firefly	0.0%	-21.0%	-3.4%	38.4%[activator]	-0.5%

Some of the entries above, set out differently:
Results follow in this order: StopGo RLuc | 2A firefly
6	O=C(Nc1ccc(F)cc1)c1cccn1-c1nnc(N2CCCCC2)s1
  -4.9% | 55.2%[activator]
20	O=c1cc(-c2ccccc2)oc2cc(OCc3ccccc3)cc(O)c12
  4.5% | 8.1%
28	Cc1ccc(N2CCN(C(=O)c3cn(C)c4ccc(S(=O)(=O)N5CCCC5)cc4c3=O)CC2C)cc1 (stereo not given)
  17.7% | -16.9%

Next structures:
66. Cc1cc(SCC(=O)NC2(C)CCS(=O)(=O)C2)nc2c(C)cccc12 (stereo not given)
67. CCc1ccc(-c2nc3cc(NC(=O)c4cccc(OC)c4)ccc3o2)cc1
68. CC(C)N(Cc1ccccc1)C(=O)COC(=O)c1ccc(F)cc1F
69. CCN(CC)c1cc(C)c2cc(NC(=O)c3cccc(OC)c3)ccc2n1
70. Cc1ccc(Cl)cc1N1CCN(C(=O)c2ccc(CS(=O)(=O)c3ccccc3C)o2)CC1

Assay by compound	66	67	68	69	70
StopGo RLuc	-3.7%	u	-3.6%	6.1%	0.7%
2A firefly	-5.8%	7.5%	0.2%	4.5%	-28.7%

71. Cc1ccc(CN(C(=O)c2ccco2)c2nc3nc(C)c(Cc4ccccc4)c(=O)n3[nH]2)cc1
72. COc1ccc2c(C)c(CCC(=O)NCc3cccc(Cl)c3)c(=O)oc2c1
73. COc1ccc(-c2nc(SC(CC(=O)NCc3ccco3)c3ccc(C)cc3)n[nH]2)cc1 (stereo not given)
74. COc1ccc(Cl)cc1NC(=O)COc1ccccc1Br
75. CCN(CC)c1ccc2cc(-c3nc4sc5c(c4c(=O)[nH]3)CCC(C(C)(C)C)C5)c(=O)oc2c1 (stereo not given)

Assay by compound	71	72	73	74	75
StopGo RLuc	23.2%	-10.0%	132.9%[activator]	0.8%	-10.7%
2A firefly	23.9%	13.4%	-17.1%	158.7%[activator]	-21.3%

76. Cc1ccc(CNC(=O)CCC(=O)N2CCSc3nc(C)cc(C)c32)cc1
77. COc1cc(NC(=O)C2=C(C)OCCS2)c(Cl)cc1C(=O)NCc1ccc2c(c1)OCO2
78. COC(=O)CNC(=O)N1CCN(S(=O)(=O)c2ccc3c(ccn3C)c2)CC1
79. CCN(Cc1cccc(F)c1)C(=O)Cn1cnc2c1c(=O)n(C)c(=O)n2C
80. CC(N)c1ccc(S(N)(=O)=O)cc1 (stereo not given)
81. Cc1ccc(OCc2nc(C#N)c(NCCN3CCOCC3)o2)cc1
82. CCOc1ccc(N(CC)C(=O)c2cc3c(s2)-c2ccccc2OC3)cc1
83. CC(C)(C)OC(=O)COc1ccc2c(-c3cc4ccccc4oc3=O)cc(=O)oc2c1

Assay by compound	76	77	78	79	80	81	82	83
StopGo RLuc	-1.7%	47.7%[activator]	-6.0%	-14.8%	0.9%	-8.2%	u	34.7%[activator]
2A firefly	8.3%	-2.2%	-1.4%	-9.5%	-8.5%	1.2%	u	8.9%
